Bioassay records as filed in PubChem.
MT1-MMP act inh – blockers of MT1-MMP proenzyme processing, primary screen, HT1080 RFP-PRO-GFP cells, GFP/RFP fluorescence | Matrix metalloproteinase-14 (Homo sapiens), P50281 | GFP/RFP ratio fluorescence, overnight; percent of plate control window, DMSO zero | GFP/RFP ratio change, % at 20 µM | 360,000 compounds, 0.061% hits | AID 651647, 2012;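 active = GFP/RFP ratio change of at least 30% with cell ATP level not reduced by more than half and red fluorescence within 50% of control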; also: strong numbers were not always called active
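Read-out: GFP/RFP fluorescence ratio; Test system: RFP-PRO-GFP reporter HT1080 cells; Compound dosing: single-point 20 µM compound, 1% DMSO; Times: overnight compound exposure at 37 °C.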
Env fusion inh – inhibitors of HIV-1 Env-driven cell-cell fusion, primary screen, HeLa-JRFL effector, CEM21 target cells, luciferase; inhibition, % at 12.3 µM; 360,000 compounds, 1.1% hits; AID 651610, 2012;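 active = mean replicate inhibition score of at least 50 and every replicate individually at or above 50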;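 also: 0% = plate neutral controls and 100% = maraviroc near 300 nM; one replicate is shown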
MT1-MMP act inh RFP – second read-out of MT1-MMP act inh, no call of its own (marks repeat the call); RFP signal change, %; measured here: RFP expression control read;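 0 = vehicle wells; hits needed this value within 50% of zero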
Numbers without * were called inactive; i = inactive.

Each structure is followed by: MT1-MMP act inh, MT1-MMP act inh RFP, Env fusion inh
COC(=O)[C@@]1(Sc2ccc(C)cc2)CC(=O)N(C(=O)c2ccccc2)[C@@H]1c1ccccc1
 : -5.1, -6.2, 1.8
C=CCn1c(COc2cccc(C)c2)nnc1SCC(=O)c1c(N)n(C)c(=O)n(C)c1=O
 : 0.4, -0.9, -4.7
O=[N+]([O-])c1nccn1CC(O)CO (stereo unspecified)
 : 5.5, 9.7, -17.9
O=C(O)C1OC(C(=O)O)C(C(=O)O)C1C(=O)O (stereo unspecified)
 : -1.3, 3.7, 10.4
N#Cc1ccc(-c2nc3c(Cl)cc(C(F)(F)F)cn3c2Cc2ccsc2)cc1
 : -7.2, -3.3, -16.9
CN(Cc1ccccc1)C(=O)[C@@H]1CCCN1C(=O)[C@@H]1CCCN1C(=O)c1cccc(Cl)c1
 : 6.0, 5.9, -14.8
CC(C)C[C@@H]1O[C@H](C(C)C)Cc2[nH][nH]c(=O)c21
 : 1.1, 0.3, 5.6
COC(=O)c1ccc(N2C(c3ccsc3)=Cc3cc4c(cc3C2CC(=O)c2ccco2)OCO4)cc1 (stereo unspecified)
 : -9.1, -13.5, -0.4
Nc1[nH]c(C(=O)c2ccccc2)c(-c2ccc(Cl)cc2)c1C(=O)NCc1ccccc1
 : 2.3, 7.4, -9.9
O=C(c1cc2ccccc2oc1=O)N1CCCN(C(=O)c2cc3ccccc3oc2=O)CC1
 : -1.8, 3.0, 16.2
CC(C)C[C@H]1CN(CCCC[C@@H]2CNC(=O)C(=O)N2CC2CCCCC2)C(=O)C(=O)N1CCc1ccc(O)cc1
 : 4.8, 5.3, -52.8
CNc1ccc(Cl)cc1S(=O)(=O)c1ccccc1[N+](=O)[O-]
 : -0.4, -5.3, 42.9
Cc1cc(C)n2cc(CSc3nnc(-c4ccccc4)c(-c4ccccc4)n3)nc2n1
 : -0.3, -20.0, 2.7
CCCCCCCCN1C(=O)[C@H](CC(=O)NCc2cccc(C(F)(F)F)c2)C[C@@]2(C(=O)OCC)CCCC=C12
 : -10.5, -21.1, 38.9
COc1cc(-c2ccc(N3C(c4ccsc4)=Cc4ccccc4C3CC(C)=O)cc2)cc(OC)c1OC (stereo unspecified)
 : 6.3, 7.8, -54.0

Reprinted from the part before: two compounds, followed by the next part.
Each structure is followed by: MT1-MMP act inh, MT1-MMP act inh RFP, Env fusion inh
CCCCCCCCN1C(=O)[C@H](CC(=O)NCc2cccc(C(F)(F)F)c2)C[C@@]2(C(=O)OCC)CCCC=C12
 : -10.5, -21.1, 38.9
COc1cc(-c2ccc(N3C(c4ccsc4)=Cc4ccccc4C3CC(C)=O)cc2)cc(OC)c1OC (stereo unspecified)
 : 6.3, 7.8, -54.0
CC1(C(=O)O)CCCN(C(=O)c2ccc(OC(F)F)cc2)C1 (stereo unspecified)
 : 13.0, 13.2, -10.5
O=C(C(=O)N1CCC(c2ccccc2)CC1)c1ccccc1
 : 6.5, 2.8, 7.9
COc1ccc(C(C(=O)NCc2ccccc2)n2c(=O)c(-c3ccccc3)nc3ccccc32)cc1 (stereo unspecified)
 : -9.0, -12.7, -2.3
COc1ccccc1NC(=O)CN1CCN(CC(=O)Nc2ccccc2F)CC1
 : 2.6, -5.3, 1.8
CCOC(=O)N1CCN(C(=O)C[C@@H]2C[C@@]3(C(=O)OCC)CCC=C3N(Cc3cccc4ccccc34)C2=O)CC1
 : -0.5, -3.0, -3.6
CCCc1nc2ccccc2n1C(C)C(=O)NC(C)(C)C (stereo unspecified)
 : 1.2, 5.3, -2.6
CSCCC(C(=O)NC(C)(C)C)n1c(-c2ccc(C)cc2)nc2ccccc21 (stereo unspecified)
 : -6.1, -4.7, 18.7
CCCCOc1ccc(S(=O)(=O)NC(=O)C2(C)CCN2C(=O)Cc2cccs2)cc1 (stereo unspecified)
 : 3.6, 7.9, 15.3
CN(Cc1cn(Cc2ccc(Cl)cc2)nn1)C1CN(Cc2cn(Cc3ccc(Cl)cc3)nn2)S(=O)(=O)C1 (stereo unspecified)
 : 4.7, -20.9, 22.7
C[C@H](O)[C@@H]1C(=O)N2CCc3c([nH]c4ccccc34)[C@@H]2C[C@@H]1N(C)S(=O)(=O)c1ccccc1
 : -3.5, 2.1, -94.5
O=C(Nc1ccc(F)cc1)C(CCc1ccccc1)N1CCN(c2ccncc2)CC1 (stereo unspecified)
 : 3.5, 3.0, 10.9
CC(C)(C)NC(=O)C(c1ccccc1F)n1c(=O)c(-c2cc3ccccc3[nH]2)nc2ccccc21 (stereo unspecified)
 : -7.9, -14.9, 7.1
O=C(Nc1ccc(-n2cnnn2)cc1)c1cc(S(=O)(=O)N2CCCC2)ccc1Cl
 : -3.7, -12.5, -32.3
CCn1nnnc1-c1ccc(OC)c(S(=O)(=O)Nc2ccccc2OC)c1
 : -2.5, -0.2, -14.2
O=C(NCc1ccccc1)C(c1cccc2ccccc12)n1c(=O)c(-c2cc3ccccc3[nH]2)nc2ccccc21 (stereo unspecified)
 : -1.2, -5.4, 46.7

Some of the entries above, reformatted.
Molecule: COc1ccc(C(C(=O)NCc2ccccc2)n2c(=O)c(-c3ccccc3)nc3ccccc32)cc1 (stereo unspecified)
  MT1-MMP act inh = -9.0	MT1-MMP act inh RFP = -12.7	Env fusion inh = -2.3
Molecule: CN(Cc1cn(Cc2ccc(Cl)cc2)nn1)C1CN(Cc2cn(Cc3ccc(Cl)cc3)nn2)S(=O)(=O)C1 (stereo unspecified)
  MT1-MMP act inh = 4.7	MT1-MMP act inh RFP = -20.9	Env fusion inh = 22.7
Molecule: CCn1nnnc1-c1ccc(OC)c(S(=O)(=O)Nc2ccccc2OC)c1
  MT1-MMP act inh = -2.5	MT1-MMP act inh RFP = -0.2	Env fusion inh = -14.2
Molecule: O=C(Nc1ccc(-n2cnnn2)cc1)c1cc(S(=O)(=O)N2CCCC2)ccc1Cl
  MT1-MMP act inh = -3.7	MT1-MMP act inh RFP = -12.5	Env fusion inh = -32.3

The listing continues:
Each structure is followed by: MT1-MMP act inh, MT1-MMP act inh RFP, Env fusion inh
CCOC(=O)N1CCN(C(=O)C[C@@H]2C[C@@]3(C(=O)OC)CCCCC=C3N(Cc3ccco3)C2=O)CC1
 : -1.1, 3.6, -11.5
CC1=CC(=NOS(=O)(=O)c2ccc(C)cc2)CC(C)(C)C1
 : 3.4, 6.0, -22.5
COC(=O)C1(C(=O)OC)c2ccccc2N(S(=O)(=O)c2ccc(C)cc2)C1CC(=O)c1ccccc1 (stereo unspecified)
 : -10.6, -13.6, 27.1
CC1(C(=O)NCc2ccccc2)CSCC(=O)N1Cc1cccc(C(F)(F)F)c1 (stereo unspecified)
 : 3.3, -7.7, -10.0
CCN(C)C1CN(Cc2cn(Cc3ccc(OC)cc3)nn2)S(=O)(=O)C1 (stereo unspecified)
 : -3.6, 3.4, -16.8
Nc1nc(=O)n(C2CCC(CO)O2)cc1F (stereo unspecified)
 : 2.9, 4.1, -130.4
COc1cc2c3c(c1OC)-c1cc4c(cc1CC3(C#N)N(C(=O)c1ccccc1)CC2)OCO4 (stereo unspecified)
 : -4.1, -5.6, -12.2
O=C1NC[C@@H](CCCCN2C[C@H](Cc3ccccc3)N(CCC3CCCCC3)C(=O)C2=O)N(CCc2ccc(O)cc2)C1=O
 : -2.1, -0.9, -11.4
CCC(C(=O)NCc1ccccc1)n1c(Cc2cc(F)cc(F)c2)nc2ccccc21 (stereo unspecified)
 : -2.9, 1.3, 17.9
CCOC(=O)N1CCN(C(=O)C[C@@H]2C[C@@]3(C(=O)OCC)CCCC=C3N(Cc3ccc(Cl)cc3Cl)C2=O)CC1
 : 0.6, -4.9, -34.3
CCN(CC)Cc1cc(C(C)(C)C)cc(N2CCOCC2)c1O
 : -0.7, -2.0, 14.0
COc1ccc2cc3[n+](cc2c1O)CCc1cc2c(cc1-3)OCO2
 : 3.4, 7.4, 3.0
C=C(CN(C)C)C(=O)c1ccc(C)cc1C
 : 2.3, 1.2, -4.6
CC(C)CC1C(=O)N(Cc2cn(CCC3OCCO3)nn2)CCS(=O)(=O)N1Cc1ccc(-c2cccc(N(C)C)c2)cc1 (stereo unspecified)
 : -0.5, -4.2, -48.7
O=C(NCc1ccccc1)C(CCc1ccccc1)n1c(=O)c(-c2cc3ccccc3[nH]2)nc2ccccc21 (stereo unspecified)
 : -3.4, -2.9, 14.2
CC(C)n1nnnc1C1c2ccccc2C(=O)N1CCc1c[nH]c2ccccc12 (stereo unspecified)
 : 3.6, 1.1, -14.7
NNC(=O)c1nnsc1-c1csnn1
 : 2.1, 1.2, -2.7
O=C(COC(=O)c1ccccc1)NC(=O)NC1CCCC1
 : 0.7, 4.0, 7.2
OC(c1ccccc1)(c1ccccc1)C1CCN(CCCOc2ccc3c(c2)CCCC3)CC1
 : -18.1, -14.9, -2.7
OCC1OC(n2cnc3c(N4CCCCC4)ncnc32)C(O)C1O (stereo unspecified)
 : -5.2, -0.2, 8.6
CCOC1=C2CN(S(=O)(=O)c3ccc(C)cc3)C(c3ccc(CC)cc3)CC2n2c(=O)n(-c3ccccc3)c(=O)n2C1 (stereo unspecified)
 : 3.7, 1.2, 25.1
CCCCCCN1CCN(C2CN(Cc3cn(Cc4ccc(C)cc4)nn3)S(=O)(=O)C2)CC1 (stereo unspecified)
 : 1.1, 1.4, -10.3
COC(=O)[C@]12CCCCC=C1N(CCC1=CCCCC1)C(=O)[C@H](CC(=O)N1CCC(c3ccccc3)CC1)C2
 : -7.5, -12.5, -6.3
CN(C)C(=S)NC(=S)Nc1ccc2ccccc2c1
 : 6.7, -4.7, -204.9
O=C(NC1CCCC1)c1nc(-c2ccco2)oc1-c1ccccc1
 : -3.4, -0.4, -6.1
COc1cccc(CNC(=O)[C@@H]2CCCN2C(=O)[C@@H]2CCCN2C(=O)c2cccs2)c1
 : 2.4, 5.4, 12.4
CC(C)[C@H](NS(=O)(=O)c1ccccc1)C(=O)OCC(=O)NCc1ccc2c(c1)OCO2
 : 1.9, 5.5, -4.7
Cc1cc(N=Nc2ccccc2)cc(C)c1NC(=O)C(F)(F)F
 : 7.3, 5.0, -43.6
O=[N+]([O-])c1ccccc1C(O)Cc1ccccn1 (stereo unspecified)
 : 0.1, 5.2, -17.2
CCOC(=O)[C@]12CCCC=C1N(CCC1=CCCCC1)C(=O)[C@H](CC(=O)NCCCN1CCCC1=O)C2
 : 4.3, 4.2, -6.9
CC(OC(=O)c1ccc(F)c(S(=O)(=O)N2CCOCC2)c1)C(=O)NC1CCCC1 (stereo unspecified)
 : 1.8, 0.9, 12.0
COc1ccc(CN2C(=O)CSCC2(C)C(=O)NC(C)C)cc1 (stereo unspecified)
 : 0.0, 1.4, 19.7
COc1ccc(NC(=O)c2cc([N+](=O)[O-])ccc2N2CCCC2)cc1S(N)(=O)=O
 : 7.9, 6.2, 6.7
O=C(NCc1ccccc1)C(C1CC1)n1c(Cc2cc(F)cc(F)c2)nc2ccccc21 (stereo unspecified)
 : -2.8, -3.8, 4.3
CC(=O)CC1c2cc(F)ccc2C=C(c2ccsc2)N1c1ccc(C#Cc2cncn2C)cc1 (stereo unspecified)
 : -12.4, -17.1, -59.5
O=C1c2ccccc2C(c2nnnn2-c2ccc3c(c2)OCCO3)N1Cc1cccs1 (stereo unspecified)
 : 1.1, 3.4, -16.2
CC(C)(C)OC(=O)NCCc1nc(NC(=O)OCc2ccccc2)sc1C(=O)O
 : 8.5, 4.1, 8.0
NC(=Nc1nc(-c2ccccn2)cc2ccccc12)c1ccccn1
 : 8.8, -12.3, i
Cn1c(N)c(C(=O)COC(=O)CC(NC(N)=O)c2ccc(Cl)cc2)c(=O)n(C)c1=O (stereo unspecified)
 : -10.2, 3.2, -24.8
CC(C)C[C@H]1CN(CCCC[C@@H]2CNC(=O)C(=O)N2Cc2ccccc2)C(=O)C(=O)N1Cc1ccccc1
 : 3.1, 2.7, -35.9
COC(=O)[C@]12CCCCC=C1N(Cc1ccc(Cl)cc1Cl)C(=O)[C@H](CC(=O)NCc1cccc3ccccc13)C2
 : -3.4, -7.4, -6.8
CCOC(=O)[C@]12CCC=C1N(Cc1ccc(Cl)cc1Cl)C(=O)[C@H](CC(=O)N1CCN(C(=O)c3ccco3)CC1)C2
 : 6.8, -0.9, -8.8
COc1ccc(OC)c(NCCN2C(=O)c3ccccc3C2=O)c1
 : 1.6, 3.0, -11.7
O=C1c2ccccc2C(c2nnnn2Cc2ccccc2)N1CCOc1ccccc1 (stereo unspecified)
 : 4.0, -0.8, -3.6
Cc1ccc(-c2nc3cc(C)c(Br)c(C)n3c2Cc2ccsc2)cc1
 : -3.8, -3.1, -5.9
CN1C(=O)[C@@](O)(c2cn(C)c3ccccc23)c2cc(F)ccc21
 : 6.1, 8.4, 0.3
CCOC(=O)Nc1nc2ccc(Cn3cccc3)cc2[nH]1
 : 8.6, -4.3, -324.3
O=C(Nc1ccc(F)cc1)C(c1cc2ccccc2o1)N1CCN(c2cccc(C(F)(F)F)n2)CC1 (stereo unspecified)
 : -4.9, -5.6, 4.8
CN1C(=O)[C@@](O)(c2cn(C)c3ccccc23)c2ccccc21
 : -3.1, 4.4, 11.2
CS(=O)(=O)Nc1ccc(F)cc1
 : 9.5, 6.8, -14.7
COc1ccc(Nc2c(CCc3ccccc3)nc3nc(C)cc(C)n23)cc1
 : -7.5, -3.1, 85.5*
COC(=O)[C@]12CCCCC=C1N(Cc1cccc3ccccc13)C(=O)[C@H](CC(=O)N1CCOCC1)C2
 : -4.1, -6.9, 5.9
CCCCn1nnnc1C1(C)CCC(=O)N1Cc1ccc(C)cc1 (stereo unspecified)
 : 0.6, 5.3, 12.3
CCN(CC)CCCNc1ccc2ncn3c4ccc(O)cc4c(=O)c1c23
 : -112.2, 0.0, 37.1

Some of the compounds tested, so the mix of outcomes need not match the whole.
